GIRK2 activ: activators of human GIRK2 potassium channels; hit rate 0.05% among 63,000; calls only for hits at 25 µM; HEK293-GIRK2 thallium flux, Thallos fluorescence; P48051;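 active = among the strongest 0.2% of first-round signals and kept after retests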;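 also: first round at about 10 µM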
Target sequence (P48051 whole entry, looked up): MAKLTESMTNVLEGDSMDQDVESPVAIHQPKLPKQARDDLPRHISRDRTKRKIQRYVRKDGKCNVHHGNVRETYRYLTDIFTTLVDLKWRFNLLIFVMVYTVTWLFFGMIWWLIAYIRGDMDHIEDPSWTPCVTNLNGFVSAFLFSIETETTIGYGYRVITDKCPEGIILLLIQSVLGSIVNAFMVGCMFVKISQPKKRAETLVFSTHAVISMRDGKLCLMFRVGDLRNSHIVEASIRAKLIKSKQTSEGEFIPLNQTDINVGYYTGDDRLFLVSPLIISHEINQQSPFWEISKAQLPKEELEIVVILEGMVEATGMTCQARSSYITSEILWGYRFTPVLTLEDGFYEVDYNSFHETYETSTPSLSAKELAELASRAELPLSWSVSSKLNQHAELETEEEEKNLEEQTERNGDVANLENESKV
Calls only; i = inactive. This is a subset (hit frequency here may not be typical).

Molecule | GIRK2 activ
CN(C)c1ncc(NC(=O)COc2ccc(-n3cccn3)nn2)cn1 | i
CCc1ccc(-n2cc(C(=O)OCc3cccnc3)c3ccccc3c2=O)cc1 | i
Cc1ccc(OCCSc2nc3ccccc3n2CC(=O)N2CCOCC2)cc1 | i
Cn1c(=O)c([N+](=O)[O-])c(N2CCC(Cc3ccccc3)CC2)c2ccccc21 | i
COc1cc(NC(=O)NC23CC4CC(CC(C4)C2)C3)ccc1N1CCCCC1=O | i
Cc1noc(-c2ccc(N3CCC(NC(=O)c4n[nH]c5c4CCCC5)C3)nc2)n1 (centres undefined) | i
COCCn1c(N2CCN(Cc3ccc(C)cc3)CC2)nc2c1c(=O)[nH]c(=O)n2C | i
COc1ccc(/C=C2\Oc3cc(OCC(=O)c4ccccc4)ccc3C2=O)c(OC)c1OC | i
COc1ccccc1NC(=O)C(=O)NCC1(O)CCc2ccccc21 (centres undefined) | i
CC(C)N1CCc2c(sc(NC(=O)COc3ccccc3)c2-c2nc3ccccc3s2)C1 | i

Quoted from above, two compounds:
Molecule | GIRK2 activ
CN(C)c1ncc(NC(=O)COc2ccc(-n3cccn3)nn2)cn1 | i
CCc1ccc(-n2cc(C(=O)OCc3cccnc3)c3ccccc3c2=O)cc1 | i

The list goes on:
Molecule | GIRK2 activ
O=C(Nc1nc(-c2ccc(Br)s2)cs1)Nc1ccccc1F | i
CCCN(CCC)S(=O)(=O)c1ccc(CC)cc1 | i
CCN1CCc2c(sc(NC(=O)C(C)(C)C)c2-c2nc3ccccc3s2)C1 | i
CN(C)C(CNC(=O)C1(c2ccccc2)CCOCC1)c1cn(C)c2ccccc12 (centres undefined) | i
COCCn1c(-c2ccccc2C)nc2c(c(=O)c3ccccc3n2C)c1=O | i
COc1cc(NC(=O)Cn2c(=O)nc(-c3ccccc3F)c3cc(Cl)ccc32)cc(OC)c1 | i
CCOc1cccc(-c2noc(Cn3cnc4c(cnn4-c4cc(Cl)ccc4C)c3=O)n2)c1 | i
C=CCOC(=O)COc1ccc2c(c1)O/C(=C\c1cccc(OC)c1OC)C2=O | i
Cc1ccc2c(Nc3cccc(Br)c3)c(C(=O)N3CCCC3)cnc2n1 | i
O=C(Cn1nc2ccc(SC3CCCCC3)nn2c1=O)NCc1ccc(Cl)cc1 | i
O=C1Cc2cc(NC(=O)c3ccccn3)ccc2N1 | i
O=C(c1ccc(S(=O)(=O)N2CCOCC2)cc1)N(C(=O)N1CCCCC1)c1ccccc1 | i
O=C(Cn1c(Cc2ccccc2)nc2ccccc21)Nc1ccc2c(c1)OCO2 | i
COc1ccc(OCc2nc3c4cc(OC)c(OC)cc4nc(=S)n3[nH]2)cc1 | i
O=C(NCCS(=O)(=O)N(CCc1ccccc1)Cc1ccccc1)c1ccc2c(c1)OCO2 | i
O=C(CC1CCCC1)NCCc1ccoc1 | i
COc1ccccc1NC(=O)c1cnc2c(c(C)nn2-c2ccccc2)c1Cl | i
CCc1noc(-c2cccnc2SCC(=O)Nc2cc(Cl)ccc2OC)n1 | i
O=C(NCc1cccs1)C1CCN(c2nc3ccsc3c(=O)n2Cc2ccc(F)cc2)CC1 | i
COCCN(Cc1ccoc1)C(=O)c1ccc(F)c(F)c1 | i
O=c1[nH]c2nc(NCc3cccc(C(F)(F)F)c3)ncc2c(=O)n1-c1ccccc1 | i
CN(C)CCNC(=O)C(=O)c1c[nH]c2ccccc12 | i
O=C(Nc1nc(CCC(=O)N2CCCCCC2)cs1)c1ccc(=O)[nH]c1 | i
CC(=O)Nc1ccc(S(=O)(=O)Nc2ccc3c(c2)C(=O)N(C)CCO3)cc1 | i
CC(C)c1nnc(C2CCN(CC(=O)NC3CC3)CC2)o1 | i
Cc1cn2c3c(=O)n(C)c(=O)n(C)c3nc2n1CCN1CCCC(C)C1 (centres undefined) | i
COc1ccccc1-n1ncc2c(C)nnc(SCC(=O)N3CCOCC3)c21 | i
CN1CCC(N(C)C(=O)Cn2nc(C(=O)N3CCN(C)CC3)cc2-c2cccs2)CC1 | i
Cn1c(=O)c2cc(C(=O)NCc3ccccc3Cl)n(Cc3ccccc3)c2n(C)c1=O | i
COc1ccc(-c2nnc(SCc3nc(-c4ccc(Cl)cc4)oc3C)n2N)cc1 | i
COc1ccccc1-c1ccc(N2CCCC(C(=O)Nc3cccc([N+](=O)[O-])c3)C2)nn1 (centres undefined) | i
O=C(CN1CCN(C(=O)c2ccc(S(=O)(=O)N3CCCC3)cc2)CC1)c1cccs1 | i
COc1ccc(Cl)cc1C(=O)N1CCN(c2cc(Nc3ccccn3)nc(C)n2)CC1 | i
CCN(CC)c1nc2cc(C(=O)OC)ccc2c(=O)n1-c1ccccc1 | i
CCCc1cc(C(=O)OC)c(N)s1 | i
COCCn1c(=O)c2c(nc3n2CCN3c2cc(C)ccc2C)n(C)c1=O | i
COc1cc2nc(SCC(=O)NCc3ccco3)n3nc(C)nc3c2cc1OC | i
CCOCCSc1nnc(C)c2cnn(-c3ccccc3OC)c12 | i
COc1ccc2c(c1)CCC(C(=O)O)C2 (centres undefined) | i
Cc1ccc2[nH]c(O)c(N=Nc3ccc(S(N)(=O)=O)cc3)c2c1 | i
COc1ccc(Br)c(C(=O)NCC(O)c2ccc3c(c2)CCO3)c1 (centres undefined) | i
COC(=O)c1ccccc1NC(=O)Cn1cnc2c(oc3ccccc32)c1=O | i
CCOC(=O)CCC(=O)Nc1ccc2c(c1)CC(=O)N2 | i
O=C(NCc1nn(C2CCCC2)c(=O)c2ccccc12)c1cc(-c2ccco2)on1 | i
O=C(CSc1nccn1Cc1ccc2c(c1)OCO2)NC1CCCCC1 | i
COC(=O)N1CCC(CNC(=O)C(=O)NCC(F)(F)F)CC1 | i
Nc1c(C(=O)NCC2CCCO2)c2nc3ccccc3nc2n1/N=C\c1cccs1 (centres undefined) | i
CC(Cc1cccs1)NC(=O)c1ccsc1 (centres undefined) | i
CCN1CCCc2cc(CCNC(=O)C(=O)Nc3ccc(NC(C)=O)cc3)ccc21 | i
CC(=O)c1sc(NC(=O)c2c[nH]c3c(C(F)(F)F)cccc3c2=O)nc1C | i

(list continues)
Molecule | GIRK2 activ
Cc1c(C)n2c3c(=O)n(Cc4cccc5ccccc45)c(=O)n(C)c3nc2n1CCN1CCOCC1 | i
O=C(NCC1(CO)CC1)C(=O)Nc1ccc2c(c1)OCO2 | i
Cc1cc(NC(=O)c2ccc(Br)o2)n(-c2nc(-c3ccc(F)cc3)cs2)n1 | i
COc1ccccc1N(CC(O)CN1C(C)CCCC1C)S(=O)(=O)c1ccccc1 (centres undefined) | i
CS(=O)(=O)CCCn1c(=O)c(Oc2ccc(F)cc2F)cc2cnc(NC3CCOCC3)nc21 | i
CCOC(=O)CCC(=O)NCC1CCN(C(=O)Oc2ccccc2)CC1 | i
CCOC(=O)C1CCN(Cc2cc(=O)oc3cc(C)ccc23)CC1 | i
Cn1nc(-c2ccccc2)cc1C(=O)NCCCn1ncccc1=O | i
O=c1c2cc(-c3cccc4ccccc34)nn2ccn1Cc1nc(-c2ccccc2Cl)no1 | i
CC1C[N+](C)(CC(O)COc2ccc(C(C)(C)CC(C)(C)C)cc2)CC(C)O1 (centres undefined) | i

Four entries drawn at random from the list so far:
Molecule | GIRK2 activ
Cc1cc(NC(=O)c2ccc(Br)o2)n(-c2nc(-c3ccc(F)cc3)cs2)n1 | i
COc1ccccc1N(CC(O)CN1C(C)CCCC1C)S(=O)(=O)c1ccccc1 (centres undefined) | i
CS(=O)(=O)CCCn1c(=O)c(Oc2ccc(F)cc2F)cc2cnc(NC3CCOCC3)nc21 | i
Cn1nc(-c2ccccc2)cc1C(=O)NCCCn1ncccc1=O | i

Continuation.
SMILES,GIRK2 activ
CCN(Cc1ccccc1)C(=O)Cn1c(N2CCOCC2)nc(C)cc1=O,i
O=C(NCCc1ccccc1)c1cn(-c2cccc(Cl)c2)nn1,i
O=C(Cn1cnc2ccccc2c1=O)NCC1CCS(=O)(=O)C1 (centres undefined),i
Cc1ccc2nc3sc(Nc4ccc(F)c(F)c4)nn3c(=O)c2c1,i
O=C(CCc1csc(NC(=O)c2ccc(=O)[nH]c2)n1)NCCc1ccccc1,i
Cn1c(N2CCN(C(=O)NC(c3ccccc3)c3ccccc3)CC2)nc2ccccc21,i
Cc1noc(-c2cccnc2N2CCC(NC(=O)C3COc4ccccc4O3)CC2)n1 (centres undefined),i
Cn1cccc1CN(Cc1cccs1)C(=O)C1(c2ccc(F)cc2)CC1,i
c1ccc(-c2[nH]ncc2-c2ccnc3ccccc23)nc1,i
N#C/C(=C\c1c(F)c(F)c(F)c(F)c1F)c1nc2ccccc2s1,i
CC(Cc1ccco1)NS(=O)(=O)c1ccc2c(c1)OCCO2 (centres undefined),i
Cc1ccc(NCc2cc3cc4c(cc3n(CC(=O)Nc3ccc(C)cc3)c2=O)OCCO4)cc1,i
Cn1cc(OCc2ccccc2)c(=O)cc1C(=O)NCc1ccco1,i
COc1cc(CN2CCC(Cn3c(C)nc4ccccc43)CC2)cc(OC)c1,i
CC(C)(C)CC(=O)N1CCCSCC1CN1CCCC1 (centres undefined),i
COc1ccccc1CC(=O)NCCn1nc(-c2sc(C)nc2C)ccc1=O,i
Cc1cc(C(O)CCNS(=O)(=O)c2ccc(F)c(Cl)c2)c(C)o1 (centres undefined),i
Cc1ccc(Nc2nc(C)cc(N3CCN(C(=O)c4cccs4)CC3)n2)cc1,i
Cc1csc(C(=O)NCCc2nc(-c3ccco3)cn2C)c1,i
Cc1csc(SCC2CCN(C(=O)c3ccc4c(c3)OCO4)CC2)n1,i
CC1CCN(c2cc(NC(=O)c3ccc(Cl)cc3Cl)ncn2)CC1,i
O=C(Oc1ccc2c(=O)c(Oc3ccccc3Br)coc2c1)N1CCOCC1,i
CCc1nc2sc(C(c3ccccc3F)N3CCCCC3)c(O)n2n1 (centres undefined),i
CCCSc1nnc(NC(=O)c2ccc(-n3cnnn3)cc2)s1,i
COc1ccc(CC(=O)Nc2cc(-c3cccs3)nn2-c2nc(C)cc(=O)[nH]2)cc1,i
Cc1cccc(N2CCN(C(=O)C3CCN(c4ccc(C)nn4)CC3)CC2)c1,i
O=C(NCc1ccc(F)cc1)c1cn(-c2ccccc2Cl)nn1,i
CCCCOc1ccc(C(=O)N2CCCC(c3nnc(C(F)(F)F)o3)C2)cc1 (centres undefined),i
Cc1cc(C)c2nc(C)cc(NC(=O)COc3ccccc3)c2c1,i
COC(=O)c1ccc2c(=O)n(CC(=O)NCCc3ccccc3)c(=S)[nH]c2c1,i
CN(C)S(=O)(=O)c1ccc2c3c(cccc13)C(=O)N2C(=O)C1CCCCC1,i
O=C(NCCc1nc2c(c(C(F)(F)F)n1)CCCC2)c1c(F)cccc1F,i
CCn1c(SCC(=O)Nc2cc(F)ccc2C)nc2nc(N3CCC(C)CC3)sc2c1=O,i
O=C1/C(=C/c2ccncc2)Oc2c1ccc1c2CN(Cc2c(F)cccc2Cl)CO1,i
COc1cc2c(cc1OC)CN(C(=O)c1ccnn1C(C)C)CC2,i
CCc1ccc(-n2cc(C(=O)OCC(=O)OC(C)C)c3ccccc3c2=O)cc1,i

Some of these compounds in order of number of heavy atoms, descending.
SMILES,GIRK2 activ
COc1ccc(/C=C2\Oc3cc(OCC(=O)c4ccccc4)ccc3C2=O)c(OC)c1OC,i
Nc1c(C(=O)NCC2CCCO2)c2nc3ccccc3nc2n1/N=C\c1cccs1 (centres undefined),i
CCc1ccc(-n2cc(C(=O)OCc3cccnc3)c3ccccc3c2=O)cc1,i
COc1ccccc1NC(=O)c1cnc2c(c(C)nn2-c2ccccc2)c1Cl,i
CN(C)S(=O)(=O)c1ccc2c3c(cccc13)C(=O)N2C(=O)C1CCCCC1,i
c1ccc(-c2[nH]ncc2-c2ccnc3ccccc23)nc1,i

Remaining list, next part.
SMILES,GIRK2 activ
CCCC(=O)N(CCN1CCOCC1)c1nc2ccc(OCC)cc2s1,i
Cn1nc(-c2ccccc2)cc1C(=O)N1CC(c2nc(-c3cccs3)no2)C1,i
Nc1nc(SCC(=O)NCC2CCCO2)n[nH]1 (centres undefined),i
O=C(Cn1ccn2nc(-c3cccs3)cc2c1=O)Nc1ccc2c(c1)CCC2,i
Cc1ccc(/C=C2\Oc3cc(OS(C)(=O)=O)ccc3C2=O)cc1,i
Cc1ccccc1C1CC(c2ccsc2)=NN1C(=O)c1ccc(Br)o1 (centres undefined),i
Cc1ccc(C)c(S(=O)(=O)NC(C)C(=O)Nc2ccc(Cl)c(Cl)c2)c1 (centres undefined),i
COCCn1c(NC2CCCCC2)nc2c1c(=O)[nH]c(=O)n2C,i
COc1cccc(CNC(=O)c2ccc(Cn3c(=S)[nH]c4cc5c(cc4c3=O)OCO5)cc2)c1,i
Cc1ccc(-n2ncc3c(C)nnc(SCC(=O)Nc4ccc(C(N)=O)cc4)c32)cc1C,i
O=C(CN1CCN(c2ccc3c(c2)OCO3)C1=O)NCc1ccccc1Cl,i
C=CCNc1nn(CC(=O)NCc2ccccc2Cl)c(N)c1-c1nc(-c2ccc(Cl)cc2)no1,i
COc1ccccc1Cn1c(=O)c2sccc2n(Cc2cc(F)ccc2F)c1=O,i
COc1ccc(Cl)cc1NC(=O)CSC1=NNC2C3CC(c4ccccc4)NN3C=CN12 (centres undefined),i
N#Cc1nc(-c2ccc(S(=O)(=O)N3CCOCC3)cc2)oc1N1CCN(c2ccccc2)CC1,i
CN(C)C(=O)c1nnn(-c2ccc(NC(=O)NCCCc3ccccc3)cc2)n1,i
COc1ccccc1C1(CNS(=O)(=O)CCc2ccccc2)CCOCC1,i
CCOC(=O)N1CCN(C(=O)C2CCN(c3cc(Oc4ccc(CC)cc4)ncn3)CC2)CC1,i
O=C(CN1CCN(c2ccccc2F)C1=O)Nc1ccc(OC(F)(F)F)cc1,i
COc1ccccc1NC(=O)CSc1nccn2nc(-c3ccc(Cl)cc3)cc12,i
CCOc1ccc(C(=O)N2CCC(CSCc3ccco3)CC2)cc1,i
COc1ccc(CNC(=O)NCC2CCN(Cc3cc(C)oc3C)CC2)cc1,i
NC(=O)c1ccccc1OCC#CCNC(=O)c1ccc(Cn2ccnc2)cc1,i
CN(C)S(=O)(=O)c1ccc(C(=O)N(CCN2CCOCC2)c2nc3ccccc3s2)cc1,i
CC(C)c1nccn1CC1CCN(S(=O)(=O)c2cccnc2)CC1,i

Screening results deposited in PubChem BioAssay by Vanderbilt University.
